VACV mCherry inh = qHTS for Stage-Specific Inhibitors of Vaccinia Orthopoxvirus: mCherry Reporter Primary qHTS; AID 720579, 2013; hit rate 0.63% among 310,000; Potency, µM (doses to about 36.5 µM), inactives show top-dose activity change, negative = inhibition, hits mostly inhibitors; Vaccinia virus mCherry reporter infection, fluorescence; about a quarter of the inactives have no number; active = well fitted inhibition curve with a large enough effect; inconclusive = small, poorly fitted or top-dose-only effect; inactive = no such curve, though single readings can be large or run the other way; tested in A549 cells; also: nearly all actives have a fitted effect of over 35% in size; inactives centre near -10
VACV Venus inh = qHTS for Stage-Specific Inhibitors of Vaccinia Orthopoxvirus: Venus Reporter Primary qHTS. Vaccinia virus Venus reporter expression, fluorescence. Potency, µM (doses to about 36.5 µM), for inactives: at the highest dose activity change, negative = inhibition, actives largely listed as inhibitors. hit rate 0.46% among 330,000. AID 720580, 2013; active means well fitted inhibition curve with a large enough effect; inconclusive means small, poorly fitted or top-dose-only effect; inactive means no such curve, though single readings can be large or run the other way; tested in A549 cells; also: nearly all actives have a fitted effect of over 30% in size; inactives centre near -10
* marks the source's active call; other numbers are inactive results; i = inactive; u = inconclusive; x = no result given; & = joins results of further samples; [ ] = dose if it differs, or a comment. % is scaled to controls: 0 for no effect and ±100 for the full control effect; potency is read from the fitted curve at half-maximal effect.

Every second line gives: VACV mCherry inh, VACV Venus inh
Cc1ccc(C(=O)NCC(=O)OCC(=O)c2ccc3c(c2)OCCO3)cc1C
→ -12%, -4%
O=C(Nc1ccc(O)cc1)c1cccc(Oc2ccc([N+](=O)[O-])cc2)c1
→ u, -16%
CC[C@]12CCCN3CCc4c(n(c5ccccc45)C(=O)C1)C32 (stereo not given in full)
→ u, -22%
CSc1ccc(CN2CCC(CO)(Cc3ccc(Cl)cc3)CC2)cc1
→ -6%, 14%
COC(=O)C1=CN(c2cccc(OCc3ccccc3)c2)C(N)=C(C#N)C1c1ccc(-c2ccccc2)cc1 (stereo not given)
→ u, -16%
Cc1ccc(C(=O)N/C(=C\c2ccc(Cl)cc2)C(=O)NC2CCCCC2)cc1
→ u, u
Cc1ccc(-c2cc(C(=O)Nc3cc(C)ccc3C)[nH]n2)c(O)c1
→ u, u
O=C(/C=C\c1ccccc1)Nc1nccs1
→ -18%, -9%
CC(C)OP(=O)(OC(C)C)C(Nc1ccccc1)c1ccc2c(c1)OCO2 (stereo not given)
→ -13%, -14%
S=C(NCc1ccccc1)C(=S)NCc1ccccc1
→ -26%, -5%
CCCCNC(=O)c1sc(=S)n2c1[nH]c(=O)c1ccccc12
→ -5%, 1%
CCCc1cc(=O)[nH]c2nnc(SCC(=O)Nc3nnc(SCC)s3)n12
→ -13%, -4%
Cc1ccc(-c2nn(CCC(=O)Nc3ccc(OC(F)(F)F)cc3)c(=O)c3ccccc23)cc1
→ u, u
Cc1cc(NC(=O)c2cc3ccccc3o2)cc(C)c1OCC(=O)N1CCOCC1
→ -13%, -15%
Cc1nc(Nc2ccccc2)sc1C(=O)c1ccc(F)cc1
→ 0%, -23%
O=C(CSc1ccc(-c2ccco2)nn1)NCc1ccc(F)cc1
→ i, -3%
CCOc1ccc(-n2c(=O)c3c(C)c(C)sc3n(Cc3cc(=O)n4cc(Cl)ccc4n3)c2=O)cc1
→ -17%, -16%
Nc1ncnc2c1ncn2[C@@H]1O[C@H](C(=O)N2CCC(F)(F)CC2)[C@@H](O)[C@H]1O
→ 53%[activator], 7%
O=C(Nc1c(C(=O)N2CCOCC2)cnn1-c1ccccc1)c1cccc(F)c1
→ i, -10%
O=C(NCc1ccccn1)c1ccc(-c2ccccc2)cc1
→ i, -11%
O=C(CCc1nc2ccccc2c(=O)[nH]1)Nc1nnc(SCc2ccccc2)s1
→ -12%, -7%
COc1cc(-c2nnc(SCC(=O)N3CCOCC3)o2)cc(OC)c1OC
→ i, -8%
CCOc1ccc(/C=C/c2nc3ccccc3n2S(=O)(=O)c2ccc(Br)cc2)cc1
→ -5%, -5%
O=C(C[n+]1ccc2ccccc2c1)c1ccc(NC(=O)c2ccccc2)cc1
→ -18%, -8%
O=C(c1cccs1)N1C[C@H](n2cc(C3CC3)nn2)[C@@H](O)C[C@@H]1c1ccccc1
→ i, -3%
CC(C)CCn1c(Oc2ccc(Cl)cc2)nc2c1c(=O)n(C)c(=O)n2C
→ 14%, 9%
O=C(c1ccccc1F)N1CCN(Cc2ccc3c(c2)OCO3)CC1
→ i, -13%
CCCCS(=O)(=O)c1oc(-c2ccc(F)cc2)nc1S(=O)(=O)c1ccccc1
→ -19%[7.34 µM], -17%[7.34 µM]
O=c1[nH]c(CN2CCN(Cc3ccc4c(c3)OCO4)CC2)nc2ccccc12
→ x, -8%
CCn1nnnc1SCC(=O)NC1CCCC1
→ x, 0%
C/C(=N\NC(=O)CN1CCOCC1)C(C)(C)C
→ -1%, -12%
CN(C)CCNC(=O)C1CCN(c2ncnc3c2nc2n3CCCCC2)CC1
→ i, -12%
COc1ccccc1CNC(=O)CN1C(=O)CSc2ccc(S(=O)(=O)N(C)C)cc21
→ -9%, -6%
Cn1c(=O)c(C(=O)CN2CCN(S(=O)(=O)c3ccccc3)CC2)c(N)n(Cc2ccccc2)c1=O
→ -15%, u
Cc1ccc(-c2cc(C(F)(F)F)n3ncc(-c4ccccc4)c3n2)cc1
→ -16%, -14%
CC(NCC(=O)Nc1ccccc1C(=O)NC1CC1)c1cccs1 (stereo not given)
→ i, -16%
O=S1(=O)CCC(N2CCOCC2)C1 (stereo not given)
→ -12%, 2%
COC(=O)c1ccc(CSc2nc(-c3ccccc3)cs2)o1
→ i, -8%
COc1ccc(OC)c(S(=O)(=O)N(C)CC(=O)N2CCN(c3ccc(F)cc3)CC2)c1
→ u, -4%
COc1ccc(C(=O)Nc2nc(-c3nnn(-c4ccc(C(C)C)cc4)c3C)ns2)cc1
→ i, -8%
CCOC(=O)c1c(NC(=O)CCCOc2ccc(C)cc2)sc2c1CCC(C)C2 (stereo not given)
→ -5%, -3%
Cc1ccc(-c2cn3c(n2)sc2cc(C(=O)NCCCc4ccccc4)ccc23)c(C)c1
→ -15%, -14%
CCC(c1ccccc1)c1nc(-c2ccccn2)no1 (stereo not given)
→ x, 35%[activator]
CC(=O)c1cccc(NC(=O)NNC(=O)c2ccc(Cl)cc2Cl)c1
→ i, -4%
O=C(NCc1ccc2c(c1)CCN2C(=O)c1ccncc1)c1ccc(Cl)cc1
→ -11%, -3%
Cc1ccc(CN(C)C(=O)c2cc(Br)c(Br)s2)o1
→ i, -4%
CN(C)c1ccc(NC(=O)Cc2ccccc2)c2ccccc12
→ -9%, -11%
CCn1c(=O)c(C(=O)NCc2ccc(OC)c(OC)c2)c(O)c2ccccc21
→ x, -6%
COc1ccc(CCNC(=O)CN2CCN(Cc3ccccc3F)C2=O)cc1OC
→ i, -7%
Cc1nnc(SCc2ccc(F)cc2)s1
→ i, -13%
COc1ccccc1NC(=O)NN1CCCCC1
→ i, -17%
NC(=O)N/N=C/c1ccc([N+](=O)[O-])o1
→ -11%&-7%, -5%&-6%
CCn1c(SCC(=O)N2CCCc3ccccc32)nnc1-c1ccco1
→ i, -27%
CCN(C(=O)CSc1nc2nc(C)cc(C)n2n1)c1cccc(C)c1
→ -9%, -10%
Cc1ccccc1CS(=O)(=O)Cc1ccc(C(=O)NCc2ccccn2)o1
→ x, -6%
CC(C)(C)c1ccc(C(=O)NC2CCS(=O)(=O)C2)cc1 (stereo not given)
→ -13%, -13%
C[C@H](CO)N1C[C@H](C)[C@@H](CN(C)C)Oc2c(NC(=O)CCC(F)(F)F)cccc2C1=O
→ i, -11%
O=C(CCC1N=C2c3ccccc3N=C(SCc3ccc(Cl)cc3)N2C1=O)NCCc1ccccc1 (stereo not given)
→ -15%, -9%
CCc1ccc(/C=C/c2c[nH]c3ccccc23)[n+](CC)c1
→ -22%, -16%
O=C(NCCCCNC(=O)c1c(Cl)cccc1Cl)c1c(Cl)cccc1Cl
→ -11%, -4%

Later entries:
Every second line gives: VACV mCherry inh, VACV Venus inh
CC1CN1P(=O)(Oc1ccccc1)N1CC1C (stereo not given)
→ -12%, -7%
O=S(=O)(c1cccs1)N1CCN(c2ccccc2F)CC1
→ u, 13%
O=C(NCC(F)(F)F)Nc1nnc(C(F)(F)F)s1
→ x, -19%
O=S(=O)(NCCCCCNS(=O)(=O)c1ccccc1)c1ccccc1
→ -30%, -21%
Cc1oc(-c2cccc(NC(=O)c3ccccn3)c2)nc1CNC(=O)c1cc(F)c(F)cc1F
→ -18%, -2%
COc1ccc(N(Cc2cc(=O)[nH]c3ccccc23)C(C)=O)cc1
→ -15%, -12%
Cc1cccc(C)c1NC(=S)/C(=C(\[O-])c1cccs1)[n+]1ccccc1
→ -18%, -7%
Cc1ccc(S(=O)(=O)N(CCC(=O)O)Cc2ccc(Cl)cc2)cc1
→ i, -16%
Cc1ccc(C(=O)NNC(=O)CCC(=O)Nc2cc(C)on2)cc1
→ i, 2%
COc1ccccc1-c1ccc(=O)n(CC(=O)NCC2CCCO2)n1 (stereo not given)
→ -24%, -2%
NC(=O)c1cccc(-c2ccnc3c2CC(C(=O)NCc2ccccc2)O3)c1 (stereo not given)
→ -9%, u
Cc1ccccc1N(CC(=O)N1CCCCCC1)S(C)(=O)=O
→ i, -1%
CN1C(=O)CSC1=NCC12CC3CC(CC(C3)C1)C2
→ -8%, -12%
CC(=O)CCC1CC(c2ccc(Cl)cc2)=NO1 (stereo not given)
→ i, -14%
COc1ccccc1CN1C(=S)SC(C)(C)C1NO (stereo not given)
→ -11%, -7%
CC(=O)c1ccc(S(=O)(=O)N(C)CC(=O)Nc2cccc(S(=O)(=O)N3CCCC3)c2)cc1
→ -20%, -19%
COc1ccc(NC(=O)COc2cc(C)cc(C)c2)cc1S(=O)(=O)N1CCCCC1
→ -30%, u
Cc1c(C(=O)Nc2cccc(C(F)(F)F)c2)sc2nc[nH]c(=O)c12
→ -7%, -20%
Cc1ccccc1COc1ccc(/C=C(\C#N)C(N)=O)cc1
→ i, -6%
N#Cc1nc(COc2ccc(Cl)cc2)oc1N1CCCC1
→ -21%, -18%
C/C(=N\O)C(=O)NCc1ccncc1
→ -16%, -2%
Nc1nc(Cl)cc(N2CCCC2)n1
→ -10%, -4%
CN(CCCNC(=O)c1cc2c(Cl)nc3ccccc3c2s1)Cc1ccccc1
→ -1%, u
C#CCCc1cocc1/C=[N+](\[O-])c1ccc(C(=O)OCC)cc1
→ i, -14%
CCCn1c(SCC(=O)N2CCCCC2)nnc1-c1ccco1
→ -5%, 0%
CC(=O)Nc1ccc(NC(=O)C(C)OC(=O)CNC(=O)c2ccc(-c3ccccc3)cc2)cc1 (stereo not given)
→ -12%, -11%
COc1ccc(C)cc1S(=O)(=O)NCc1ccccn1
→ -6%, -16%
CCOC(=O)c1ccc(S(=O)(=O)N(CCO)Cc2cc3cc(OC)c(OC)cc3[nH]c2=O)cc1
→ -23%, 1%
Cn1c(Sc2ccc(Br)cc2)c(C=O)c2ccccc21
→ x, -29%
CCC(=O)NC(c1ccc(OC)cc1)c1cc(Cl)c2cccnc2c1O (stereo not given)
→ u, u

Entries of single compounds from above. Values in the order: VACV mCherry inh | VACV Venus inh
Cc1ccccc1N(CC(=O)N1CCCCCC1)S(C)(=O)=O as listed: i | -1%
Cc1ccccc1COc1ccc(/C=C(\C#N)C(N)=O)cc1 as listed: i | -6%

13 successive entries out of the list so far:
Every second line gives: VACV mCherry inh, VACV Venus inh
O=C(NCC(F)(F)F)Nc1nnc(C(F)(F)F)s1
→ x, -19%
O=S(=O)(NCCCCCNS(=O)(=O)c1ccccc1)c1ccccc1
→ -30%, -21%
Cc1oc(-c2cccc(NC(=O)c3ccccn3)c2)nc1CNC(=O)c1cc(F)c(F)cc1F
→ -18%, -2%
COc1ccc(N(Cc2cc(=O)[nH]c3ccccc23)C(C)=O)cc1
→ -15%, -12%
Cc1cccc(C)c1NC(=S)/C(=C(\[O-])c1cccs1)[n+]1ccccc1
→ -18%, -7%
Cc1ccc(S(=O)(=O)N(CCC(=O)O)Cc2ccc(Cl)cc2)cc1
→ i, -16%
Cc1ccc(C(=O)NNC(=O)CCC(=O)Nc2cc(C)on2)cc1
→ i, 2%
COc1ccccc1-c1ccc(=O)n(CC(=O)NCC2CCCO2)n1 (stereo not given)
→ -24%, -2%
NC(=O)c1cccc(-c2ccnc3c2CC(C(=O)NCc2ccccc2)O3)c1 (stereo not given)
→ -9%, u
Cc1ccccc1N(CC(=O)N1CCCCCC1)S(C)(=O)=O
→ i, -1%
CN1C(=O)CSC1=NCC12CC3CC(CC(C3)C1)C2
→ -8%, -12%
CC(=O)CCC1CC(c2ccc(Cl)cc2)=NO1 (stereo not given)
→ i, -14%
COc1ccccc1CN1C(=S)SC(C)(C)C1NO (stereo not given)
→ -11%, -7%

The results go on.
Every second line gives: VACV mCherry inh, VACV Venus inh
CCN(CC)C(=O)c1cccc(-c2csc(C(O)c3ccc(OC)cc3)n2)c1 (stereo not given)
→ i, -2%
CCOC(=O)C(=O)N(C)c1c(CC)nc2c(OCc3cccc(Cl)c3)cccn12
→ i, -3%
Cc1cc(/C=C2/NC(=O)N(Cc3ccccc3F)C2=O)c(C)n1-c1ccccn1
→ u, -15%
Clc1ccc(-c2nc(N3CCCCC3)nc3ccccc23)cc1
→ -21%, -29%
COCCCNC(=O)c1ccccc1Sc1ccc(NC(C)=O)nc1
→ i, -15%
O=C(COC(=O)/C=C/c1ccc(F)cc1)Nc1ccccc1-c1ccccc1
→ i, -13%
O=c1[nH]c2cc3c(cc2cc1CN(Cc1ccccc1)Cc1nnnn1Cc1ccco1)OCCO3
→ i, 18%
COc1ccc(Cl)cc1C(=O)NCc1ccc2c(c1)OCO2
→ -1%, u
CC1CC(C)CN(C(=O)CSCC(=O)O)C1 (stereo not given)
→ 8%, 15%
CCC(C(=O)Nc1ncccn1)(C(F)(F)F)C(F)(F)F
→ x, -7%
O=C1C=C(NCc2ccccc2)CCC1
→ i, -10%
COCCN(Cc1ccccc1)C(=O)Cc1ccc(OC)c(S(=O)(=O)N2CCOCC2)c1
→ i, -3%
CC(=O)N(C)C1(c2nnnn2CCOC(=O)Nc2ccc(Cl)cc2)CCCCC1
→ x, -14%
CC(C)OCCCNC(=O)c1cc(S(=O)(=O)N2CCc3ccccc32)cn1C
→ i, -18%
COc1cccc(S(=O)(=O)N(C)C[C@H]2OCc3cn(nn3)CCCC(=O)N([C@H](C)CO)C[C@@H]2C)c1
→ i, -5%
CCN(CC)c1ccc(/C=C(\C#N)C(N)=O)cc1
→ -16%, u
CC(=O)C1=CCC(c2ccc(Cl)cc2)N(S(=O)(=O)c2ccc(C)cc2)C1 (stereo not given)
→ 24%, -9%&-8%
Cc1ccc(N2CCN(C(=O)CNS(=O)(=O)c3ccc(Br)s3)CC2C)cc1 (stereo not given)
→ -29%, -24%
Cc1nc2ccccc2c(=O)n1/N=C/c1ccccc1F
→ -5%, -5%
